Source: PubChem BioAssay
D2 potentiator = positive allosteric modulators of human D2 dopamine receptor. 360,000 tested, 0.23% active. P14416. DiscoveRx D2 beta-arrestin cells, luminescence, 90 min; 100% = 57 uM dopamine signal. potentiation, % (concentration not given with the values); active = potentiation of 50% or more; inconclusive = 30% to 50%; inactive = 30% or less;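 note: compound concentration not given in the record; tested on top of an EC20 dose of dopamine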
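PathHunter beta-arrestin assay in DiscoveRx D2 cells. Compounds were added with an EC20 of dopamine (50 nM final) for 90 min at 37 deg C. Luminescence was read 1 h after detection reagent, with 57 uM dopamine as the EC100 control.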
CtBP-E1A inh = inhibitors of CtBP/E1A interaction. AlphaScreen GST-E1A/His-CtBP binding, 1536-well; active compounds read low; control for the full effect not named in the record. activity change, % (concentration not given with the values). 340,000 tested, 0.49% active; in the data active means activity change below about -65%; inconclusive means about -30% to -65%; inactive means above about -30%; note: % is set by controls: 0 for no effect and ±100 for the full control effect
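GST-E1A and His-tagged CtBP (125 nM each as 5X stock) were preincubated with pin-transferred compound for 2 h at 37 °C in the dark, then glutathione donor and nickel acceptor beads were added for 1 h before AlphaScreen reading.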
TRPML1 ag = human mucolipin-1 channel agonism | TRPML1-expressing cells, Ca2+ dye fluorescence, FDSS; host cell line not named in the record; reference of the full effect not given here | activation, % (test concentration not listed) | AID 624414 | 410,000 tested, 0.12% active; in the data active = activation above about 50%; inconclusive = about 30% to 50%; inactive = below about 30%; note: 0% is about no effect; the text of the record puts the active cut at 80%
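Calcium fluorescence on an FDSS kinetic reader gave the read-out. Tet-induced TRPML1-DL cells were plated overnight, dye-loaded (Ca8 with quencher, 45-90 min, room temperature, dark), then read 110 s after compound addition, and again 110 s after 4uM final 54-4 (EC80).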
Six1-Eya2 inh = Six1/Eya2 interaction inhibition; 360,000 tested, 0.56% active; activity change, % (test concentration not listed); AID 651725; AlphaScreen GST-Six1/His-Eya2 binding, biochemical; active compounds read low; control for the full effect not named in the record; Q15475+O00167; in the data active = activity change below about -65%; inconclusive = about -30% to -65%; inactive = above about -30%; note: % is set by controls: 0 for no effect and ±100 for the full control effect
Target sequence (O00167 whole entry, looked up): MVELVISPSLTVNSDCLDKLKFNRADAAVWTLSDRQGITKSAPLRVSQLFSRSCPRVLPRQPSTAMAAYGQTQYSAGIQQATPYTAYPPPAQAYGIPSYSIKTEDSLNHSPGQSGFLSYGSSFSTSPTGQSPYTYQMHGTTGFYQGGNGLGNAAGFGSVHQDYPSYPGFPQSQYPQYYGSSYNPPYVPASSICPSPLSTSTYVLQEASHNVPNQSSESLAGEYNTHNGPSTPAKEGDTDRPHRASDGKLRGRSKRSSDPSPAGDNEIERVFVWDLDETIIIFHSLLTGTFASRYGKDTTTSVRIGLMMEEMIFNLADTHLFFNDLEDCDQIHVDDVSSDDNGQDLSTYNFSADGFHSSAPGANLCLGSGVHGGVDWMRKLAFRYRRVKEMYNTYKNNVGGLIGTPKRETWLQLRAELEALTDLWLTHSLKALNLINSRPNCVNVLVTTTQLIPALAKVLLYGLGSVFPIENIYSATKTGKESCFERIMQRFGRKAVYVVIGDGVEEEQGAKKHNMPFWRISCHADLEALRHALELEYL
Target sequence (Q15475 whole entry, looked up): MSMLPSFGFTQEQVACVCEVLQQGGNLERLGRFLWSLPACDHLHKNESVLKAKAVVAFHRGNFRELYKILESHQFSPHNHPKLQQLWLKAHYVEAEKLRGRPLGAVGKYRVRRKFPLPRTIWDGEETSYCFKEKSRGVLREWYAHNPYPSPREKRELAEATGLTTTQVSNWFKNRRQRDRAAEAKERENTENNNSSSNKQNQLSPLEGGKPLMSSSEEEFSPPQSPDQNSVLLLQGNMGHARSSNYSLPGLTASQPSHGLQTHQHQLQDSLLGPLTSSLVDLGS
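Homogeneous AlphaScreen proximity assay pairing GST-Six1 with His-tagged Eya2 (added as 5X mix: 250 nM and 500 nM) in 50 mM Tris pH 8.0, 300 mM NaCl, 1 mM TCEP. Glutathione donor and nickel acceptor beads; 1 h, 37 °C, dark.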
D2 agonist = human D2 receptor agonism in beta-arrestin assay; activation, % (test concentration not listed); DiscoveRx PathHunter D2 beta-arrestin, luminescence, 90 min; 100% = 57 uM dopamine signal; 360,000 tested, 0.084% active; in the data active = activation above about 40%; inconclusive = about 15% to 40%; inactive = below about 15%; note: compound concentration not given in the record; the text of the record calls up to 30% inactive
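DiscoveRx PathHunter D2 beta-arrestin cells (2,100/well) attached overnight, then compound-stimulated 90 min at 37 C in HBSS/10 mM HEPES/0.1% Tween-20 buffer; beta-galactosidase complementation read by luminescence after 1 h at ambient temperature. Dopamine 57 uM final (EC100) as control.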
PINK1 expr mod = PINK1 expression modulation; PINK1 immunofluorescence, high-content cytometry, 24 h; Potency, µM (series often up to 76.6 µM), for inactives: at the highest dose activation (PINK1 increase), actives largely listed as activators; 410,000 tested, 0.2% active; active = well fitted activation curve with a large enough effect; inconclusive = small, poorly fitted or top-dose-only effect; inactive = flat fitted curve, though single readings scatter; cell line not stated here;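 note: potency is the fitted concentration of half-maximal effect; % of control where 0% means no effect; nearly all actives have a fitted effect of over 65% in size; a mitochondrial uncoupler was the plate control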
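Stable cell line treated 24 h with compounds at 5 concentrations (CCCP controls), then fixed and immunostained for PINK1 plus nuclear and cell stains; PINK1 immunofluorescence quantified by laser-scanning microplate cytometry.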
* = called active by the depositor; ? = inconclusive; · = no result given; & = joins results of further samples; [ ] = dose if it differs, or a comment.

1) O=C(O)c1ccc(COc2ccccc2[N+](=O)[O-])o1
2) CCC(=O)N1c2ccc(S(=O)(=O)N3CCN(C)CC3)cc2CC1C (configuration not stated)
3) COc1ccc(S(=O)(=O)N2CCCCC2)cc1
4) O=C(O)c1oc2ccc(Br)cc2c1-n1cccc1
5) CC1(C)CC(=O)c2cc3c(N)c(C(=O)NCc4ccccc4)sc3nc2C1
6) COC(=O)c1ccccc1N1C(=O)[C@@H]2C(c3ccc(Br)cc3)=NO[C@@H]2C1=O

compound no.	1	2	3	4	5	6
D2 potentiator	-18	-10	4	-4	-4	10
CtBP-E1A inh	14	·	3	-4	11	2
TRPML1 ag	-0.5	-0.8	1.4	-1.0	-0.4	0.0
Six1-Eya2 inh	6	-6	5	-6	10	-5
D2 agonist	-3.2	-2.2	-3.9	-2.9	-1.2	-2.3
PINK1 expr mod	1.8%	-1.6%	-1.2%	-21%[38.3 µM]	9.5%	-0.1%

7) CCOC(=O)CCC(NC(=O)c1ccc(NCN2C(=O)CCC2=O)cc1)C(=O)OCC (configuration not stated)
8) Cc1ccc(NC(=O)c2ccc(-c3nn(C)c(=O)c4ccccc34)cc2)c(C)c1
9) CC(C)(C)c1ccc(C(=O)N/C(=C/c2cccs2)C(=O)NCc2ccco2)cc1
10) C[C@@H](O)[C@@H]1NC(=O)c2cc([N+](=O)[O-])cc(I)c2NCC[C@@H](C(N)=O)NC(=O)CNC1=O
11) COc1ccc(CCNC(=O)c2ccc(=O)[nH]n2)cc1OC
12) CC(=O)N/C(=C\c1ccccc1)C(=O)OCC(=O)N(C)C1CCCCC1

compound no.	7	8	9	10	11	12
D2 potentiator	7	-9	-20	-6	-6	-5
CtBP-E1A inh	3	-4	3	-17	6	-9
TRPML1 ag	0.3	1.3	1.9	-0.1	-0.8	0.2
Six1-Eya2 inh	4	-2	-9	-2	-1	4
D2 agonist	3.4	-2.3	-8.1	-0.6	-4.1	-1.4
PINK1 expr mod	?	·	0.0%	-1.7%	0.4%	0.8%

13) COc1cccc(NC(=O)CN(C)CC(=O)Nc2ccc(C)c([N+](=O)[O-])c2)c1
14) CCn1nc(NS(=O)(=O)c2ccc([N+](=O)[O-])cc2)c2cc3ccccc3nc21
15) C#CCNC(=O)C1=C[C@@H](c2ccccc2)[C@H](CCCO)[C@@H](OCC)O1
16) O=C1N[C@H](Cc2ccccc2)COC(=O)[C@H](Cc2ccc(F)cc2)CC/C=C/C[C@@H]1CC(=O)N(CCO)Cc1ccccc1
17) COc1ccc(N(CC(=O)NCc2ccc(F)cc2)C(=O)CCC(=O)Nc2nccs2)cc1
18) CCCc1nc2ccccc2c(=O)n1/N=C/c1c(C)[nH]n(-c2ccc(C)cc2)c1=O

compound no.	13	14	15	16	17	18
D2 potentiator	1	-10	9	-2	-9	-13
CtBP-E1A inh	-14	-24	4	3	2	?
TRPML1 ag	3.0	-0.9	-1.1	-0.2	1.9	-0.2
Six1-Eya2 inh	-11	-13	0	3	15	-1
D2 agonist	1.9	-1.5	0.8	-6.7	0.0	-4.5
PINK1 expr mod	-1.3%	3.3%	14%	2.3%	17%	5.8%

19) CCOC(=O)CNC(=O)N1CCCC(C(=O)c2ccc3c(c2)OCO3)C1 (configuration not stated)
20) Cc1cccc(NC(=O)CN2C(=O)CCS(=O)(=O)c3ccccc32)c1C
21) CN1/C(=C\C(=O)Nc2ccc(Cl)cc2)C(C)(C)c2ccccc21
22) COc1ccc(S(=O)(=O)n2c([N+](=O)[O-])cnc2C)c(C)c1C
23) CCn1c(SCc2cccc(C)c2)nnc1-c1ccccc1
24) Cc1ccc(-c2csc(NC(=O)c3ccc([N+](=O)[O-])o3)n2)cc1

compound no.	19	20	21	22	23	24
D2 potentiator	-10	-2	-1	0	-3	-3
CtBP-E1A inh	·	6	1	7	3	-3
TRPML1 ag	0.5	-0.8	0.6	0.4	0.5	1.4
Six1-Eya2 inh	1	3	-5	4	2	-1
D2 agonist	-3.2	-2.2	4.0	1.5	0.1	8.9
PINK1 expr mod	2.1%	-0.2%	?	-1.5%	-3.6%[38.3 µM]	0.6%

25) O=C(NCc1ccccc1)Nc1cccn(Cc2ccc(Cl)cc2)c1=O
26) CN(Cc1nccn1C)C(=O)c1ccc2nc(Cc3ccccc3F)oc2c1
27) COc1ccc2c(c1)C(O)C(CO)C(C(=O)O)C2 (configuration not stated)
28) CN1CCN(NC(=O)/C=C/c2ccc(Br)cc2)CC1
29) Cn1nc(C(=O)NNC(=O)c2cccc(Cl)c2)ccc1=O
30) O=C(CN1CCCCC1)Nc1ccc(C(F)(F)F)cc1Cl

compound no.	25	26	27	28	29	30
D2 potentiator	-9	-13	-11	-6	-8	1
CtBP-E1A inh	-10	3	-6	2	6	4
TRPML1 ag	2.1	-0.7	0.5	-0.2	-0.4	0.5
Six1-Eya2 inh	-1	3	8	7	4	1
D2 agonist	-6.8	0.6	-0.4	-0.1	3.2	-2.1
PINK1 expr mod	3.1%	-0.9%	-5.6%	0.4%	0.6%	9.9%

31) COC(=O)N/N=C/c1cc(C)n(-c2ccc(Br)cc2)c1C
32) CCC(=O)c1ccc(OCC(=O)NCc2ccccc2CN2CCCC2)cc1
33) COC(=O)CSc1cc(C(F)(F)F)nc(-c2ccccn2)n1
34) CCOC(=O)C1=C(O)CCn2c1nc1ccccc12
35) O=C(c1cc(COc2ccc3ncccc3c2)on1)N1CCC(O)CC1
36) CCC(=O)c1cn(CC(=O)Nc2ccccc2)c2ccccc12

compound no.	31	32	33	34	35	36
D2 potentiator	-10	-9	-7	-9	-5	-4
CtBP-E1A inh	-5	-1	5	-4	-1	-9
TRPML1 ag	-0.3	1.7	-0.5	-0.5	-0.6	0.9
Six1-Eya2 inh	-2	-2	3	-3	0	11
D2 agonist	-4.5	-5.5	-2.0	-3.1	-4.1	0.9
PINK1 expr mod	2.2%	-0.1%	·	-0.6%[38.3 µM]	0.3%	4.8%

Single values from the results shown:
Entry of no. 31 under PINK1 expr mod: 2.2%
Entry of no. 33 under D2 agonist: -2.0
Entry of no. 35 under CtBP-E1A inh: -1

(list continues)
37) COCCOc1cc(Nc2nnc(C(F)(F)F)s2)c(Cl)cc1Cl
38) Cc1ccccc1-n1ncc2c1CC(C)(C)CC2NC(=O)c1ccncc1 (configuration not stated)
39) CCCn1c(SCC(=O)Nc2cc(S(=O)(=O)N3CCCCC3)ccc2C)n[nH]c1=O
40) O=C(Oc1cccc2c(OC(=O)N3CCCC3)cccc12)N1CCCC1
41) CC(C)C[C@H](NC(=O)c1nc[nH]c1C(=O)N1CCNCC1)C(=O)OCc1ccccc1
42) CC12CCC(C(=O)C1)C1(C)CCCC(=O)C21 (configuration not stated)

compound no.	37	38	39	40	41	42
D2 potentiator	-37	15	-1	-4	7	-4
CtBP-E1A inh	-4	16	4	-5	-5	0
TRPML1 ag	4.0	0.0	2.0	1.0	-0.6	0.1
Six1-Eya2 inh	1	4	1	5	-7	13
D2 agonist	-5.1	1.5	6.6	-1.9	1.7	-2.8
PINK1 expr mod	?	3.4%	-0.1%	5.8%	-0.4%	?

43) N#Cc1cc(C(=O)c2cc(F)ccc2O)cn(-c2nccs2)c1=O
44) CC(C(=O)N1CCCCC1)N(C)CC(=O)Nc1cccc(F)c1 (configuration not stated)
45) O=C(O)C1C2C=CC3(O2)C1C(=O)N1c2ccccc2C2OCCC2C13 (configuration not stated)
46) Cc1cc(C)c(NC(=S)N(C)C)c(C)c1
47) O=C(O)C1=CC[C@@H](c2ccc(Cl)cc2)N(S(=O)(=O)c2ccc(Cl)cc2)[C@H]1c1cccc(Cl)c1
48) NNc1nc2c(Cl)ccc(Cl)c2s1

compound no.	43	44	45	46	47	48
D2 potentiator	-4	-1	-7	1	-3	-32
CtBP-E1A inh	0	6	-5	·	-7	-4
TRPML1 ag	124*	0.0	0.5	2.8	-0.4	-0.2
Six1-Eya2 inh	?	12	-11	3	9	-7
D2 agonist	0.0	-0.9	-0.4	-2.3	-0.4	-6.8
PINK1 expr mod	12%	1.6%	1.2%[38.3 µM]	-0.9%	0.0%	?

Shown with values under each structure: 3 of the compounds above
Screens in order: D2 potentiator | CtBP-E1A inh | TRPML1 ag | Six1-Eya2 inh | D2 agonist | PINK1 expr mod
(42) CC12CCC(C(=O)C1)C1(C)CCCC(=O)C21 (configuration not stated)
→ -4 | 0 | 0.1 | 13 | -2.8 | ?
(6) COC(=O)c1ccccc1N1C(=O)[C@@H]2C(c3ccc(Br)cc3)=NO[C@@H]2C1=O
→ 10 | 2 | 0.0 | -5 | -2.3 | -0.1%
(3) COc1ccc(S(=O)(=O)N2CCCCC2)cc1
→ 4 | 3 | 1.4 | 5 | -3.9 | -1.2%

Next section.
49) Cc1ccccc1CN1CCC(N2CCC(C(=O)NCC3CCCO3)CC2)CC1 (configuration not stated)
50) CN(c1ccccc1)S(=O)(=O)c1nnc(NC(=O)COc2ccccc2F)s1
51) C/C(=C\C(=O)c1ccccc1)Nc1ccc2c(c1)OCO2
52) O=C(N/C(=C/c1ccc([N+](=O)[O-])cc1)C(=O)N1CCCC1)c1ccccc1
53) COc1ccccc1CCNC(=O)C(=O)c1cn(CC(=O)N2CCOCC2)c2ccccc12
54) CCOc1ccc(Nc2cc(C)nc3ccc(C)cc23)cc1

compound no.	49	50	51	52	53	54
D2 potentiator	-13	4	-8	-2	0	-6
CtBP-E1A inh	-1	·	-3	0	5	8
TRPML1 ag	1.1	-0.4	1.0	-0.6	-0.9	1.7
Six1-Eya2 inh	-1	-1	-13	-10	0	13
D2 agonist	-3.3	1.7	-4.2	-0.1	-6.0	-2.0
PINK1 expr mod	0.2%	3.3%	3.4%	-1.4%	0.1%	16%

55) COc1ccc(CNC(=O)CCNS(=O)(=O)c2cccc3nsnc23)cc1
56) CCOC(=O)C(C)Sc1nc(-c2ccccn2)ncc1OC (configuration not stated)
57) Cc1ccc(CNC(=O)CN2C(=O)NC3(CCCC3)C2=O)cc1
58) Nc1nc(NCCCN2CCOCC2)nc(Nc2ccc(F)cc2)c1[N+](=O)[O-]
59) O=C(N/N=C/c1ccc[nH]1)c1ccncc1

compound no.	55	56	57	58	59
D2 potentiator	-5	-8	-5	-10	4
CtBP-E1A inh	5	·	-5	4	-6
TRPML1 ag	-0.6&-0.3	-0.8	-0.2	-1.4	1.0
Six1-Eya2 inh	2	-91*	-1	-18	-8
D2 agonist	1.1	1.2	-2.3	1.8	2.6
PINK1 expr mod	-0.6%&-0.4%	-0.7%	-0.1%	-0.9%	-1.7%
